2A Renilla = lowers the Renilla signal of an FMDV 2A StopGo reporter | 0.32% of 120,000 active | HEK cells with a luciferase reporter of 2A StopGo recoding | Potency, µM (highest dose often 57.5 µM), inactives show at the highest dose signal change, negative = less light; active means well fitted falling curve with a large enough effect; inconclusive means small, poorly fitted or top-dose-only effect; inactive means no such curve, though single readings can be large or run the other way; note: nearly all actives have a fitted effect of over 55% in size; overnight with compound
2A firefly = FMDV 2A StopGo reporter, firefly signal; Potency, µM (doses to about 57.5 µM), for the others: top-dose signal change, negative = less light; 0.23% of 120,000 active; HEK cells with a luciferase reporter of 2A StopGo recoding; active = well fitted falling curve with a large enough effect; inconclusive = small, poorly fitted or top-dose-only effect; inactive = no such curve, though single readings can be large or run the other way; note: nearly all actives have a fitted effect of over 60% in size; overnight with compound
* hit, by the source's call; ? = inconclusive; & = joins results of further samples; [ ] = remark or other dose. % is set by controls: 0 for no effect and ±100 for the full control effect; potency is the fitted concentration of half-maximal effect.

Under each structure: 2A Renilla, 2A firefly
[1] CCN(CC)CCCN(c1ccccc1)C1Cc2ccccc2C1
    -9%, -17%[11.5 µM]
[2] COc1cccc(Oc2coc3cc(OCC#N)ccc3c2=O)c1
    13%, 0%
[3] O=C(NCCc1ccccc1)c1nn(-c2ccccc2Cl)nc1CO
    14%, -24%
[4] CCOC(=O)C(CC)n1nc(C)n2c(cc3occc32)c1=O (stereo not given)
    -1%, 0%
[5] COc1ccc(-c2nn(C)c(=O)c3ccccc23)cc1NC(=O)c1ccccc1Cl
    20%, 17%
[6] Cc1cc(Cl)ccc1NS(=O)(=O)c1c(C)[nH]c(=O)[nH]c1=O
    1%, 22%
[7] Cc1csc(SCC(=O)Nc2ccccc2C(=O)Nc2ccc(F)cc2)n1
    13%, 60%[activator]
[8] COc1ccc2c(c1)cc(C(=O)Nc1c(C)cccc1C)n2C
    32%[activator], 36%[activator]
[9] COc1ccc(C2=NOC(C(=O)N3CCN(c4ccc(F)cc4)CC3)C2)cc1OC (stereo not given)
    -22%, -8%
[10] COc1cc2c(cc1OC)-c1c(c(C(=O)NCCN3CCOCC3)nn1-c1ccccc1)C2
    71%[activator], 39%[activator]

The list goes on; the last 2 above are carried over.
Under each structure: 2A Renilla, 2A firefly
[9] COc1ccc(C2=NOC(C(=O)N3CCN(c4ccc(F)cc4)CC3)C2)cc1OC (stereo not given)
    -22%, -8%
[10] COc1cc2c(cc1OC)-c1c(c(C(=O)NCCN3CCOCC3)nn1-c1ccccc1)C2
    71%[activator], 39%[activator]
[11] O=c1oc2c(O)cccc2cc1-c1nc(-c2ccc(Cl)cc2)no1
    -4%, 18%
[12] CC(C)CNc1nc(C(=O)Nc2ccccc2O)cs1
    12%, 136%[activator]
[13] O=C(COc1ccc(F)cc1)Nc1ccccc1OCc1cc(=O)n2ccccc2n1
    -1%, -12%
[14] O=C(Nc1cccc(Cl)c1)N1CCC(CN2CCOCC2)CC1
    -1%, 41%[activator]
[15] Cn1c(=O)[nH]c(=O)c2c1nc(NCCO)n2CC(O)COc1ccccc1 (stereo not given)
    -6%, -11%
[16] COc1cc(OC)c(NC(=O)Cn2nc(Cc3ccncc3)c3ccccc3c2=O)cc1Cl
    -19%, -6%
[17] O=[N+]([O-])c1cccc(-n2nc(-c3ccccc3)c3cnc4cc(C(F)(F)F)ccc4c32)c1
    15%, 12%
[18] CCC(=O)OC1(c2ccccc2)CCN(C)CC1
    -11%[129 µM], 17%[27 µM]
[19] Cc1cc(-c2ccc(C)c(S(=O)(=O)Nc3ccccc3C(F)(F)F)c2)on1
    125%[activator], 6%
[20] CCN(NC(=O)c1ccc(CNC(N)=O)cc1)c1ccc(C)cc1
    -4%, ?
[21] CC(Sc1nc2ccccc2o1)C(=O)NCC1CCCCC1 (stereo not given)
    15%, 5%
[22] CCOc1ccc(C(=O)OCc2ccccc2C#N)cc1
    6%, 43%[activator]
[23] CCOc1ccc(S(=O)(=O)c2cn(Cc3ccccc3C)c3ccc(OC)cc3c2=O)cc1
    127%[activator], 5%
[24] COc1ccccc1CNC(=O)C(C)Sc1nc2cc(Cl)ccc2n1C (stereo not given)
    11%, -3%
[25] Nc1ccc(S(=O)(=O)Nc2ccc(Cl)nn2)cc1
    42%[activator], 12%
[26] Cn1c(=O)c2c(nc(Br)n2Cc2cccc(Cl)c2)n(C)c1=O
    ?, ?
[27] Cc1ccc(Sc2c(C)nn(C(=O)COc3ccc(F)cc3)c2C)cc1
    83%[activator], 99%[activator]
[28] CC(OC(=O)c1ccc(CS(C)(=O)=O)cc1)C(=O)c1ccc(F)cc1 (stereo not given)
    18%, 52%[activator]
[29] O=C(/C=C/c1ccco1)OC(C(=O)c1ccccc1)C(=O)c1ccccc1
    11%, 134%[activator]
[30] CCOc1cc(S(=O)(=O)N(CCO)CCO)ccc1Br
    15%, 15%

Two entries picked at random from those above:
Under each structure: 2A Renilla, 2A firefly
[25] Nc1ccc(S(=O)(=O)Nc2ccc(Cl)nn2)cc1
    42%[activator], 12%
[21] CC(Sc1nc2ccccc2o1)C(=O)NCC1CCCCC1 (stereo not given)
    15%, 5%

Next results.
Under each structure: 2A Renilla, 2A firefly
[31] Cc1noc(C(C)C)c1C(=O)Nc1ccc(SC(F)F)cc1
    6%, 0%
[32] CC1CCN(S(=O)(=O)c2cc3c4c(c2)C(C)C(=O)N4CCC3)CC1 (stereo not given)
    67%[activator], -17%
[33] COc1ccc(S(=O)(=O)N2CCCCC2)cc1NC(=O)c1nn(C(C)C)c(=O)c2ccccc12
    27%, 13%
[34] CONC(=O)C(NC(=O)c1ccc(Cl)cc1Cl)C(C)C (stereo not given)
    17%, 5%
[35] O=C(COc1ccc2c(=O)c(-c3ccc(Cl)cc3)coc2c1)Nc1ccccc1
    -2%, 0%
[36] COc1cc(OC)cc(OC(C)C(=O)Nc2cc(Cl)ccc2OC)c1 (stereo not given)
    17%, 13%
[37] Cc1cc(CNC(=O)c2ccncc2)c2ccccc2n1
    2%, -6%
[38] CC(=O)N1CCC(C(=O)NCC2(c3ccc(F)cc3)CCC2)CC1
    -1%, -3%
[39] Cc1ccc2nc(N/C(N)=N/S(=O)(=O)c3ccccc3)nc(C)c2c1
    31%, 6%
[40] Cc1csc(SCCCOc2ccc(C#N)cc2)n1
    12%, 44%[activator]

Screen by screen, quoted from above:
Nos. 33 to 40 in 2A Renilla: 27%, 17%, -2%, 17%, 2%, -1%, 31%, 12%
Nos. 33 to 40 in 2A firefly: 13%, 5%, 0%, 13%, -6%, -3%, 6%, 44%[activator]

(cont.)
Under each structure: 2A Renilla, 2A firefly
[41] COc1ccc(C)cc1NC(=O)c1cc(S(=O)(=O)N2CCC(C)CC2)ccc1F
    17%, -8%
[42] COc1ccc(-c2c(C)oc3cc(OCC(=O)Nc4cc(C)ccc4OC)ccc3c2=O)cc1
    -1%, 3%
[43] CCC1c2ccsc2CCN1C(=O)C1CCN(S(=O)(=O)c2ccc(C(C)C)cc2)CC1 (stereo not given)
    -27%, ?
[44] O=C(CSc1nc(-c2cccs2)nc2cc(=O)[nH]n12)Nc1cccc(C(F)(F)F)c1
    -27%, -16%
[45] CCN(CC)c1ccc(NC(=O)c2sc3nc(-c4ccccc4)cn3c2C)cc1
    ?, ?
[46] Cc1cc(C)cc(NC(=O)C(Cc2ccccc2)NS(=O)(=O)c2ccc3c(c2)c(=O)n(C)c(=O)n3C)c1 (stereo not given)
    50%[activator], -9%
[47] Cc1ccccc1CNC(=O)c1sc2ncnc(N(C)C3CCCCC3)c2c1C
    11%, 20%
[48] CCC1(c2ccc(NC(=O)c3c(OC)cccc3OC)cc2)CCC(=O)NC1=O (stereo not given)
    -9%, -8%
[49] COc1cc(NC(=O)Cn2cnc(S(=O)(=O)N3CCCC3)c2)cc(OC)c1OC
    106%[activator], -4%
[50] COc1ccc(NC(=O)Cn2c(=O)n(-c3cccc(C(F)(F)F)c3)c(=O)c3sccc32)cc1
    -1%, -3%
[51] CCOC(=O)N1CCc2c(sc(NCc3sccc3C)c2C(=O)Nc2cc(OC)ccc2OC)C1
    -4%, -21%
[52] CC(=O)Nc1ccc(C(/C=C/c2ccccc2)Cc2ccccc2)cc1 (stereo not given)
    14%, 14%
[53] CCc1ccc(-n2nc(CO)c(C(=O)NCc3ccc(OC)cc3)n2)cc1
    -16%, -7%
[54] COc1cccc(NC(=O)CC2Oc3ccccc3NC2=O)c1 (stereo not given)
    -6%, -9%
[55] COc1ccc(S(=O)(=O)NCc2ccc(C(=O)NCc3ccccc3)cc2)cc1
    36%[activator], 0%
[56] CCOC(=O)c1c(-c2ccccc2)oc2ccc(OCc3cccc(Br)c3)cc12
    -12%, -8%
[57] COc1ccccc1CCNC(=O)c1sc(NC(C)C)nc1C
    -5%, 22%
[58] CN1CCN(CCNC(=O)Cc2ccc(C(F)(F)F)cc2)CC1
    6%, -6%
[59] COc1cc(C(C)=O)ccc1Oc1cccc(Cl)c1C#N
    0%, 18%
[60] CCOC(=O)c1c(NC(=O)c2ccc(OC)cc2)sc2c1CCCCC2
    -7%, -12%
[61] N#Cc1ccccc1COc1ccccc1C#N
    13%, 23%
[62] Cc1ccc(NC(=O)CSc2nc3ccc(NC(=O)c4ccco4)cc3s2)cc1
    11%, 3%
[63] CCOC(=O)c1cc(-c2ccccc2)n(-c2cccc(C(=O)N(C)c3ccc(C)cc3)c2)c1C
    -29%, -19%
[64] Cc1ccccc1Cn1c(N2CCC(C(=O)N3CCCC3)CC2)nc2ccccc21
    -8%, -10%
[65] CC1(C)S[C@@H]2[C@H](NC(=O)C(c3ccccc3)S(=O)(=O)O)C(=O)N2[C@H]1C(=O)O (stereo not given in full)
    -8%, -7%[11.5 µM]
[66] O=C(Cn1nc(Cc2cccnc2)c2ccccc2c1=O)Nc1ccc(Cl)cc1
    3%, 10%
[67] Cc1ccc(-c2nc3cc(C(C)C)ccc3o2)cc1NC(=O)c1cc2ccccc2o1
    7%, 19%
[68] CSc1cccc(Nc2cc(C(=O)NCCc3ccc(Cl)cc3)c3ccccc3n2)c1
    ?, ?
[69] Cc1c(C(=O)OC(C)C)sc(NC(=O)C2c3ccccc3Oc3ccccc32)c1C(=O)OC(C)C
    -10%, 5%
[70] CCSc1ncc(Cl)c(C(=O)Nc2nnc(CC)s2)n1
    -4%&0%, 2%&0%
[71] CCN(CC)S(=O)(=O)c1ccc(C)c(NC(=S)N(c2ccccc2)C(C)C)c1
    10%, -7%
[72] COC(=O)c1scc(-c2ccc(C)cc2)c1S(=O)(=O)Nc1c(C)cc(C)cc1C
    -12%, -13%
[73] CCN(CC)c1ccc(NC(=O)c2cnc3ccccc3n2)cc1
    -9%, 180%[activator]
[74] COc1cccc(CC(=O)Nc2ccc(-c3nc4ccccc4s3)cc2)c1
    12%, 141%[activator]
[75] COP(=O)(OC)c1nc(-c2ccco2)oc1NCc1ccccc1Cl
    207%[activator], 6%
[76] NC(=O)C(OC(=O)CNS(=O)(=O)Cc1ccccc1)c1ccccc1 (stereo not given)
    9%, 0%
[77] N#CC1(NC(=O)CSc2nc(-c3ccccc3)cs2)CCCCC1
    51%[activator], 26%
[78] COc1cc(C)c(NC(=O)c2ccc3c(c2)NC(=O)CS3)cc1OC
    18%, 12%
[79] COc1cccc(Nc2nc3ccc(C)cc3nc2-n2nc(C)cc2C)c1
    -7%&3%, 8%&9%
[80] O=C(CN1CCCCCC1)NCCc1c[nH]c2ccccc12
    -5%, 10%
[81] Cc1oc(-c2ccccc2)nc1CC(=O)Nc1ccccn1
    25%, 126%[activator]
[82] COc1ccc(-n2c(SC(C(=O)N3CCCC3)c3ccccc3)nnc2-c2ccncc2)cc1 (stereo not given)
    1%, 9%
[83] O/N=C(\c1ccc(Cl)cc1)c1ccco1
    5%, 16%
[84] COc1ccc(NC(=O)CCc2ccc(OC)c(OC)c2)cn1
    -7%, -8%
[85] COc1ccccc1N1CCN(C(=O)C(CCSC)NS(=O)(=O)c2ccc3c(c2)oc(=O)n3C)CC1 (stereo not given)
    5%, 13%
[86] CCOC(=O)N1CCN(C(=O)c2cc3occc3n2Cc2ccccc2)CC1
    ?, ?
[87] CCOC(=O)Cn1c(=O)c2c(nc(-n3nc(C)cc3C)n2CC)n(C)c1=O
    -9%, -6%
[88] Cc1ccc2c(CN3CCN(c4ccc(Cl)cc4)CC3)cc(=O)oc2c1
    -10%, -12%
[89] COc1cc(NC(=O)N2CC(C)Oc3ccc(Cl)cc32)cc(OC)c1OC (stereo not given)
    -5%, -4%
[90] O=S(=O)(NCC1(c2ccccc2)CCC1)c1ccc(F)c(F)c1
    63%[activator], 0%

Later entries:
Under each structure: 2A Renilla, 2A firefly
[91] CC(=O)c1cccc(NC(=O)CN2C(=O)c3ccccc3Sc3ncccc32)c1
    -5%, -4%
[92] COCCN(Cc1cccs1)CC1CCCO1 (stereo not given)
    0%, -1%
[93] O=C1C=C(Nc2ccccc2C(F)(F)F)CCC1
    -6%, -2%
[94] COc1ccccc1C(=O)CSc1nc2ccccc2c(=O)n1CCCN1CCOCC1
    -4%, -4%
[95] Cc1ccc(NC(=O)CCSc2nc(-c3ccc4c(c3)OCO4)cc(C(F)(F)F)n2)c(C)c1
    -3%, -8%
[96] N#CCCN1CCN(c2ccc(NS(=O)(=O)c3ccccc3Cl)cc2C(=O)O)CC1
    -12%, -6%
[97] Cc1cccc(C)c1NC(=O)c1cccc(N(C)C)c1
    -1%, 13%
[98] O=C(Nc1ccccc1N1CCOCC1)C1=NN(C2CCS(=O)(=O)C2)C(=O)CC1 (stereo not given)
    3%, 5%
[99] Cc1ccc(Cn2c(C(=O)O)c(CNCc3cccs3)c3ccc(C)cc32)cc1
    57%[activator], -22%
[100] COc1ccccc1CNC(=O)c1ccc(N2CCCC2)c(NC(=O)NCc2ccccc2)c1
    0%, ?
[101] CCCNC(=O)C(C)NC(=O)CSc1ccc(NC(C)=O)cc1 (stereo not given)
    5%, 19%
[102] O=C(Nc1ccccc1Cl)N1CCC2(CC1)Oc1ccccc1C(=O)N2Cc1ccc(F)cc1
    -19%&-11%, -26%&-12%
[103] Cc1ccc(C)c(CSC2=NC(C)(C)Nc3ccccc32)c1
    -4%&2%, 12%&7%
[104] CN(C)c1ccc(C(=O)OCc2ccc(C#N)cc2)cc1
    93%[activator], 97%[activator]
[105] Cc1ccc(NC(=O)Cc2nc(-c3c[nH]c(C(=O)N4CCCC4)c3)cs2)cc1
    18%, -3%
[106] O=C(CCSc1ccccc1)Nc1nnc(C2CC(=O)N(c3ccc(Cl)cc3)C2)s1 (stereo not given)
    3%, 14%
[107] CCCNc1nc2c(c(=O)[nH]c(=O)n2C)n1CCC(C)C
    22%, 35%[activator]
[108] O=c1[nH]c2ccccc2n1CCCN1CCN(C(c2ccccc2)c2ccccc2)CC1
    -10%, -17%[11.5 µM]
[109] COc1cccc(-c2cn3c(n2)sc2cc(C(=O)NCCC4=CCCCC4)ccc23)c1
    -2%, 84%[activator]
[110] NC(=O)c1ccc(NC(=O)Cn2cnc3ccc(Cl)cc3c2=O)cc1
    30%[activator], 16%

Screening data deposited in PubChem by National Center for Advancing Translational Sciences (NCATS).

Not all compounds are listed; the hit share may differ from the screen's.
